Compound activity as filed in PubChem.
FGF22 binding – binders of human FGF22 protein, primary screen, FGF22 synaptogenesis inhibitor project, biophysical, thermal shift, single point; Fibroblast growth factor 22 (Homo sapiens), Q9HCT0; recombinant FGF22 thermal shift, SYPRO orange fluorescence; percent of sucrose octasulfate shift, DMSO zero; calls only at 9.99 µM; 1.5% of 340,000 active;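 active = melting point raised past a set limit in the mean and every replicate; inconclusive = no clear call; three in four hits are not shown here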
Target sequence (Q9HCT0 whole entry, looked up): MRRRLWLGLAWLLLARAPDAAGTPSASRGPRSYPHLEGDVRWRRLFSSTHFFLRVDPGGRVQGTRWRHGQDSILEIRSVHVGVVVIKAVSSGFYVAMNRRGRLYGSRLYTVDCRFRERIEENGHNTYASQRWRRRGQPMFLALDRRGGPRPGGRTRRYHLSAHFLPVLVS
UCH37 DUB inh – inhibitors of human UCH37 deubiquitinase, primary screen, biochemical, Ub-AMC cleavage, fluorescence; purified proteasome/UCH37; inhibition, % (concentration not given with the values); AID 588478, 2011; Ubiquitin carboxyl-terminal hydrolase isozyme L5 (Homo sapiens), Q9Y5K5; 0.33% of 330,000 active;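 active = mean of two replicates above 20%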;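 also: 0% = compound-free wells with enzyme and 100% = wells lacking proteasome; stock transfer was 100 nL into about 20 µL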
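Reagent: Ub-AMC substrate; assay system: Proteasome-associated human UCH37 deubiquitinase; controls: no-proteasome and no-compound wells; read-out: % inhibition of Ub-AMC cleavage fluorescence; timing: 30 min preincubation with enzyme, 25 min cleavage at room temperature; signal: AMC fluorescence from Ub-AMC cleavage, excitation 355 nm, emission 460 nm; buffer or medium: Tris-HCl pH 7.4 plus ovalbumin, ATP-MgCl2, DTT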
LANA-H2B inh – blockers of LANA interaction with H2A/H2B – biochemical, FP readout, HTS, primary screen | 0.6% of 320,000 active | inhibition, % (concentration not given with the values) | AID 2629, 2010 | cell-free LANA-H2A/H2B peptide, fluorescence polarization; in the data active = inhibition mostly above about 10%, no sharp cut-off; inactive = mostly below about 6.7%;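 also: stock transfer was 7.5 nL into about 10 µL; 0% = median of vehicle wells and 100% = median of positive control wells; one replicate is shown; the record names a cut of 25% in any replicate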
B2AR ag – beta2AR agonists driving receptor internalization, primary screen, cell-based, FAP fluorogen, flow cytometry; Am2.2-beta2AR cells; reference of the scale not given here; Beta-2 adrenergic receptor (Homo sapiens), P07550; response, % (concentration not given with the values); 0.43% of 340,000 active;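 active = response above a set limit, near 3 SD of response in nonfluorescent compounds, cut at about 42% in these data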;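 also: stock transfer was 100 nL into about 11 µL; a reference agonist was the positive control; negative values mostly stem from fluorescent compounds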
Target sequence (P07550 whole entry, looked up): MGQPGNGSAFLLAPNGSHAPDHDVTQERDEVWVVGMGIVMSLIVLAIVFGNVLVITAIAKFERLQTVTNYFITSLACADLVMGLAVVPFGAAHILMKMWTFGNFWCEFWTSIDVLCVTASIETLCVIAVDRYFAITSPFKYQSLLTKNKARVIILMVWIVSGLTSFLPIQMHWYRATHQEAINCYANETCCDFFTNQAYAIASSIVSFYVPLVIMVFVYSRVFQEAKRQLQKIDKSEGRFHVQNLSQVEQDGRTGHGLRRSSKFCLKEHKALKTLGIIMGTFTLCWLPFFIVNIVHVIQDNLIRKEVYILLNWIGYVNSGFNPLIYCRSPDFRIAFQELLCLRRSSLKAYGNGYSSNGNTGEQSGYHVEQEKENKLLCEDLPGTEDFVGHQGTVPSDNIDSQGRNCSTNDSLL
HNF4A DNA FP – change in binding of human HNF4A to DNA, primary screen, biochemical, fluorescence polarization, FITC-DNA; Hepatocyte nuclear factor 4-alpha (Homo sapiens), P41235; 1 h; activity change, % at 10 µM; 0.3% of 360,000 active; in the data active = activity change above about 30%, passing the limit was not always enough;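 also: controls were the assay level and a saturating level of protein; the project sought stronger binding though the title names inhibitors; some compounds called inactive have numbers as strong as hits; positive values seem to mean higher polarization but the record does not say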
ALR inh – inhibitors of human ALR sulfhydryl oxidase, primary screen, biochemical, H2O2 detection, HRP-luminol luminescence, single point; FAD-linked sulfhydryl oxidase ALR (Homo sapiens), P55789; purified ALR, DTT oxidation; inhibition, % (test concentration not listed); 3.8% of 290,000 active;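 active = mean and each replicate at 75% or more; inconclusive = only one of the two met; inactive = neither met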;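 also: stock transfer was 7.5 nL into about 7.5 µL; 0% = neutral wells and 100% = wells with inactivated enzyme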
Target sequence (P55789 whole entry, looked up): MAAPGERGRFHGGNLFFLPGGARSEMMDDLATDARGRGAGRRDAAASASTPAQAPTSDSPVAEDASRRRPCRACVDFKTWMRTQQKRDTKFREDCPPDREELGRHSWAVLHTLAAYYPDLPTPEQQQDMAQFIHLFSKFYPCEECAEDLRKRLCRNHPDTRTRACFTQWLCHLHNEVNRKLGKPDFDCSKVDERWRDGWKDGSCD
E coli growth – E. coli growth inhibition, primary screen, OD600. AID 1053175, 2014. OD600 absorbance (concentration not given with the values). Escherichia coli growth, 23 h; stronger effect = lower value. 0.21% of 330,000 active;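 active = OD600 absorbance below the run mean of sample wells minus 3.6 SD, in any replicate, cut at about 0.56 in these data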;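 also: stock transfer was 300 nL into about 60 µL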
Active calls of the source: *. The list is partial. The share of hits here may be higher or lower than overall.

Screening O=C(NNc1ccc(F)cc1)c1c(F)cccc1Cl returned FGF22 binding inactive, UCH37 DUB inh 4.0, LANA-H2B inh 1.4, B2AR ag 5, HNF4A DNA FP -2.0, ALR inh 0 and E coli growth 0.68.
Screening c1ccc(-c2csc(NNC3=NCCCCC3)n2)cc1 returned UCH37 DUB inh 4.8, LANA-H2B inh -4.1, B2AR ag 14, HNF4A DNA FP 2.1, ALR inh inconclusive and E coli growth 1.
Screening CCN(CC)c1ccc(C(NC(C)=O)NC(C)=O)cc1 returned UCH37 DUB inh 0.6, LANA-H2B inh -2.8, B2AR ag -3, HNF4A DNA FP 3.3, ALR inh 9 and E coli growth 0.68.
COc1ccccc1CNC(=O)c1csc(Cc2ccc(Cl)cc2)n1 was read as UCH37 DUB inh 2.9, LANA-H2B inh -2.7, B2AR ag 1, HNF4A DNA FP -1.7, ALR inh -12 and E coli growth 0.73.
`CN(CC(=O)Nc1cccc(F)c1)C(=O)c1ccc2c(c1)OCCO2` gave FGF22 binding inactive, UCH37 DUB inh 2.9, LANA-H2B inh -1.5, B2AR ag 11, HNF4A DNA FP -2.0, ALR inh 3 and E coli growth 0.73.
CCCc1ccccc1OCCNC(=O)c1cc(=O)n(C)c(=O)n1C was read as FGF22 binding inactive, UCH37 DUB inh -1.1, LANA-H2B inh 2.0, B2AR ag 0, HNF4A DNA FP 0.2 and E coli growth 0.66.
CCN1CCN(S(=O)(=O)c2ccc(Cl)c(C(=O)N(C)Cc3ccco3)c2)CC1 was read as FGF22 binding inactive, UCH37 DUB inh 3.1, B2AR ag -1, HNF4A DNA FP 1.8 and E coli growth 0.71.
O=C(Nc1cccc(Cl)c1)Nc1csc([N+](=O)[O-])c1 was read as FGF22 binding inactive, LANA-H2B inh -2.6, B2AR ag 16, HNF4A DNA FP -4.0 and ALR inh -6.
For O=C(COc1ccc2c(-c3ccccc3)cc(=O)oc2c1)N[C@@H](Cc1c[nH]c2ccc(O)cc12)C(=O)O the results were FGF22 binding inactive, UCH37 DUB inh 7.8, LANA-H2B inh 5.1, B2AR ag -5, HNF4A DNA FP 7.9, ALR inh 30 and E coli growth 0.72.
`Cc1ccnc(NC(=O)CCC(=O)N(CC(=O)NC(C)(C)C)c2ccc(F)c(Cl)c2)c1` gave UCH37 DUB inh 0.5, LANA-H2B inh -2.2, B2AR ag -6, HNF4A DNA FP 0.9, ALR inh -4 and E coli growth 0.68.
Screening CCCSc1nc(C)c(-c2csc(C(C#N)=C3CCCC3)n2)cc1C#N returned UCH37 DUB inh 2.4, LANA-H2B inh -5.7, B2AR ag -1, HNF4A DNA FP -13, ALR inh -3 and E coli growth 0.71.
`Cc1ccc(-c2ccc(=O)n(Cc3ccc(F)cc3)n2)cc1` gave FGF22 binding inactive, UCH37 DUB inh 2.0, LANA-H2B inh 1.4, B2AR ag -10, HNF4A DNA FP 2.1, ALR inh 0 and E coli growth 0.66.
For C=CCNC(=O)O/N=C/c1csc([N+](=O)[O-])c1 the results were FGF22 binding inactive, LANA-H2B inh 4.0, B2AR ag -1, HNF4A DNA FP -4.5 and ALR inh -18.
For COc1ccc(-n2c(Cn3nnc4ccccc43)n[nH]c2=S)cc1 the results were UCH37 DUB inh 1.5, B2AR ag 1, HNF4A DNA FP 4.4 and E coli growth 0.6.
`CN(CC(=O)NCc1ccccn1)S(=O)(=O)c1ccc2ccccc2c1` gave FGF22 binding inactive, UCH37 DUB inh 2.8, LANA-H2B inh 2.8, B2AR ag 7, HNF4A DNA FP 0.4, ALR inh 0 and E coli growth 0.66.
For COc1ccc(NC2CCCN(Cc3cccc4cnccc34)C2)cc1 (stereo unspecified) the results were FGF22 binding inactive, UCH37 DUB inh 6.3, LANA-H2B inh -0.3, B2AR ag -3, HNF4A DNA FP 0.7 and E coli growth 0.68.
For Cc1cc([N+](=O)[O-])nn1CC(=O)NCCCN1CCOCC1 the results were FGF22 binding inactive, UCH37 DUB inh 3.2, LANA-H2B inh 5.1, B2AR ag 4, HNF4A DNA FP -4.0, ALR inh -2 and E coli growth 0.66.
O=C(COc1ccccc1)Nc1ccc(N2CCN(C(=O)c3ccco3)CC2)cc1 was read as FGF22 binding inactive, UCH37 DUB inh 3.3, LANA-H2B inh 1.3, B2AR ag -2, HNF4A DNA FP 0.0, ALR inh 42 and E coli growth 0.68.
COc1ccc(NC(=O)c2cc3sccc3n2Cc2ccc(F)cc2)cc1OC was read as UCH37 DUB inh 1.1, LANA-H2B inh -0.6, B2AR ag -2, HNF4A DNA FP -2.2 and E coli growth 0.74.
Screening COc1ccc(S(=O)(=O)N2CCN(c3nn(C)c(=O)n(C)c3=O)CC2)cc1 returned FGF22 binding inactive, UCH37 DUB inh 0.8, B2AR ag 8, HNF4A DNA FP -1.9, ALR inh -5 and E coli growth 0.7.

Three entries drawn at random from those above:
For Cc1cc([N+](=O)[O-])nn1CC(=O)NCCCN1CCOCC1 the results were FGF22 binding inactive, UCH37 DUB inh 3.2, LANA-H2B inh 5.1, B2AR ag 4, HNF4A DNA FP -4.0, ALR inh -2 and E coli growth 0.66.
Screening COc1ccc(S(=O)(=O)N2CCN(c3nn(C)c(=O)n(C)c3=O)CC2)cc1 returned FGF22 binding inactive, UCH37 DUB inh 0.8, B2AR ag 8, HNF4A DNA FP -1.9, ALR inh -5 and E coli growth 0.7.
CCCc1ccccc1OCCNC(=O)c1cc(=O)n(C)c(=O)n1C was read as FGF22 binding inactive, UCH37 DUB inh -1.1, LANA-H2B inh 2.0, B2AR ag 0, HNF4A DNA FP 0.2 and E coli growth 0.66.

The list continues.
COCCNc1nc2c(-c3cccc(C(F)(F)F)c3)nnn2c2ccccc12 was read as FGF22 binding inactive, UCH37 DUB inh -386, LANA-H2B inh -2.6, B2AR ag -8, HNF4A DNA FP 0.9, ALR inh 6 and E coli growth 0.68.
For CCC(C)(C)c1ccc(OCCN2C(=O)NC(C)(C)C2=O)cc1 the results were UCH37 DUB inh 7.1, LANA-H2B inh -6.2, B2AR ag -1, HNF4A DNA FP 1.0, ALR inh 4 and E coli growth 0.71.
`O=C(COC(=O)COc1ccccc1)Nc1ccc(OC(F)(F)F)cc1` gave UCH37 DUB inh 5.2, LANA-H2B inh 2.8, B2AR ag 5, HNF4A DNA FP -0.5 and E coli growth 0.74.
For COc1ccc(C(=O)Nc2ccc(N3CCOCC3)cc2)cc1OC the results were UCH37 DUB inh 0.9, LANA-H2B inh -0.9, B2AR ag -4, HNF4A DNA FP 1.4, ALR inh -14 and E coli growth 0.7.
Screening COc1ccc2c(Cl)c(C(=O)NN)sc2c1 returned UCH37 DUB inh 3.0, LANA-H2B inh 2.9, B2AR ag 1, HNF4A DNA FP -1.3, ALR inh -10 and E coli growth 0.66.
Screening Cc1ccc(OCCC(=O)OCC(=O)c2c(N)n(CC(C)C)c(=O)n(C)c2=O)cc1 returned FGF22 binding inactive, UCH37 DUB inh 1.0, LANA-H2B inh 4.2, B2AR ag -4, HNF4A DNA FP 1.0, ALR inh 0 and E coli growth 0.65.
O=C(NC(=S)N1CCCc2ccccc21)c1ccc([N+](=O)[O-])cc1 was read as FGF22 binding inactive, UCH37 DUB inh 8.2, LANA-H2B inh 3.7, B2AR ag -8, HNF4A DNA FP 0.7, ALR inh 14 and E coli growth 0.68.
For COc1ccc(/C=C2\SC(=O)N(CCC(=O)Nc3ccccc3)C2=O)cc1OC the results were UCH37 DUB inh -5.8, LANA-H2B inh -8.4, B2AR ag 10, HNF4A DNA FP 2.9, ALR inh -15 and E coli growth 0.7.
`COc1ccc2[nH]c3c(C)c4cc[n+](C)cc4c(C)c3c2c1` gave FGF22 binding inactive, B2AR ag -4 and HNF4A DNA FP 62.
For Cc1nc(N)nc(OCC(F)(F)C(F)F)c1Br the results were UCH37 DUB inh 3.4, LANA-H2B inh 3.7, B2AR ag -4, HNF4A DNA FP 2.4, ALR inh 5 and E coli growth 0.65.
Screening COc1cc(CN/C(C)=C(\C#N)C(N)=O)cc(OC)c1OC returned UCH37 DUB inh 0.8, LANA-H2B inh 0.0, B2AR ag 3, HNF4A DNA FP 0.2, ALR inh -2 and E coli growth 0.71.
Screening O=C(C1CCC(=O)N(C2CCCC2)C1)N1CCC(Oc2cccc(F)c2)CC1 (stereo unspecified) returned FGF22 binding inactive, UCH37 DUB inh 3.0, LANA-H2B inh 4.7, B2AR ag -12, HNF4A DNA FP 1.8, ALR inh 0 and E coli growth 0.63.
For CC(=O)c1ccc(NC(=O)c2cccc(NC(=O)c3ccccc3)c2)cc1 the results were FGF22 binding inactive, UCH37 DUB inh 5.3, LANA-H2B inh -2.2, B2AR ag 0, HNF4A DNA FP -1.9, ALR inh -10 and E coli growth 0.65.
COc1ccc(NC(=O)CN(C)C(=O)c2cc3c(s2)CCC3)cc1 was read as LANA-H2B inh 1.7, B2AR ag 6, HNF4A DNA FP -48 and ALR inh -4.
For COc1ccc([C@@H]2C[C@H]3CN(Cc4ccccc4OC)C(=O)[C@]34CCCN24)cc1C the results were FGF22 binding inactive, UCH37 DUB inh -4.6, LANA-H2B inh -2.8, B2AR ag -5, HNF4A DNA FP 6.7 and E coli growth 0.69.
For O=C(NS(=O)(=O)c1ccc(Cl)s1)c1ccccc1 the results were FGF22 binding inactive, UCH37 DUB inh 1.4, LANA-H2B inh 0.3, B2AR ag -1, HNF4A DNA FP -2.7, ALR inh 12 and E coli growth 0.66.
For Cc1cccc(CSc2nnnn2-c2ccccc2)c1 the results were UCH37 DUB inh -1.1, LANA-H2B inh 2.2, B2AR ag -1, HNF4A DNA FP -0.3, ALR inh -2 and E coli growth 0.66.
Cc1ccc(-c2nc(N)sc2CC(=O)OCC(=O)N2C(C)CCCC2C)cc1 (stereo unspecified) was read as FGF22 binding inactive, UCH37 DUB inh -2.0, LANA-H2B inh -2.0, B2AR ag -19, HNF4A DNA FP 0.8, ALR inh 5 and E coli growth 0.66.
CCOC(=O)C[n+]1c(C)ccc2c1CCC2 was read as UCH37 DUB inh 3.1, LANA-H2B inh -0.9, B2AR ag -2, HNF4A DNA FP -0.6, ALR inh -38 and E coli growth 0.68.
`CCOc1ccc2nc(-c3ccc(OC)c(OC)c3)cc(C(=O)O)c2c1` gave UCH37 DUB inh -1.6, LANA-H2B inh 1.5, B2AR ag 38, HNF4A DNA FP -2.6, ALR inh -4 and E coli growth 0.71.
`Cc1nc(-c2noc(-c3ccccc3Cl)n2)c(C(F)(F)F)o1` gave FGF22 binding inactive, UCH37 DUB inh 3.3, LANA-H2B inh 2.3, B2AR ag -12, HNF4A DNA FP -0.1, ALR inh -4 and E coli growth 0.69.
For CCOc1ccccc1NC(=S)N1CCN(c2ccccc2)CC1 the results were FGF22 binding inactive, UCH37 DUB inh 4.5, LANA-H2B inh -4.9, B2AR ag 3, HNF4A DNA FP -0.6, ALR inh 98* and E coli growth 0.68.
For COc1ccc(N2C(=O)CSC23CCC(C(C)(C)C)CC3)cc1 (stereo unspecified) the results were UCH37 DUB inh 0.9, LANA-H2B inh -3.1, B2AR ag -3, HNF4A DNA FP 0.2, ALR inh -6 and E coli growth 0.71.
Screening O=C(CN1C(=O)C2C3C=CC(C3)C2C1=O)Nc1ccc(S(=O)(=O)Nc2nccs2)cc1 (stereo unspecified) returned FGF22 binding inactive, UCH37 DUB inh 1.4, LANA-H2B inh -5.5, B2AR ag -5, HNF4A DNA FP 0.8, ALR inh 10 and E coli growth 0.68.
